From PubChem
TRPML1 agonist = activates the human TRPML1 channel; TRPML1-expressing cells, Ca2+ dye fluorescence, FDSS; host cell line not named in the record; reference of the full effect not given here; activation, % (concentration not given with the values); 410,000 compounds, 0.12% hits; in the data active = activation above about 50%; inconclusive = about 30% to 50%; inactive = below about 30%; also: 0% is about no effect; the text of the record puts the active cut at 80%
Target sequence (Q9GZU1 whole entry, looked up): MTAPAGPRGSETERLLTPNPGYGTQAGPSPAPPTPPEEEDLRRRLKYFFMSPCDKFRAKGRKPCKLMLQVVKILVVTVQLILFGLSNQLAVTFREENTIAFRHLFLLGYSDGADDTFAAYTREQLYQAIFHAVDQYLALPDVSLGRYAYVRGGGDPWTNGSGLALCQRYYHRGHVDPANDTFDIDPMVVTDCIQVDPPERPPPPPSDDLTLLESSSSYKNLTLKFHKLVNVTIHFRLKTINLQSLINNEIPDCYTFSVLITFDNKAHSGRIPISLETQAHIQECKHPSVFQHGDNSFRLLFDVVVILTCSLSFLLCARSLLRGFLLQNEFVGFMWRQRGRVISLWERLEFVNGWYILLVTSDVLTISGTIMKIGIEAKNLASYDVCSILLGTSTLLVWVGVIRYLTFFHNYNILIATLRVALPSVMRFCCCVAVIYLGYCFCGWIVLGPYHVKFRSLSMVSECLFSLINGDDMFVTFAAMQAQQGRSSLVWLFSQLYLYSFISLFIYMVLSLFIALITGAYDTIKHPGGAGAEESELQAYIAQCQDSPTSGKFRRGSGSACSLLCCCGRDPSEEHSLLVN
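Calcium fluorescence on an FDSS kinetic reader gave the read-out. Tet-induced TRPML1-DL cells were plated overnight, dye-loaded (Ca8 with quencher, 45-90 min, room temperature, dark), then read 110 s after compound addition, and again 110 s after 4uM final 54-4 (EC80).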
gsp agonist = agonists of gsp mutant (McCune-Albright syndrome); gsp mutant cells, cAMP HTRF, 30 min; control for the full effect not named in the record; Potency, µM (series often up to 76.9 µM), for the others: at the top dose activation (cAMP increase), hits mostly activators; 340,000 compounds, 0.13% hits; AID 624287; active = well fitted activation curve with a large enough effect; inconclusive = small, poorly fitted or top-dose-only effect, or another doubt; inactive = no such curve, though single readings can be large or run the other way; cell line not stated here;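 also: phosphodiesterase inhibitor Ro 20-1724 added with compounds to block cAMP breakdown; potency is read from the fitted curve at half-maximal effect; nearly all actives have a fitted effect of over 60% in size; about a fifth of the inactives were tested at one dose only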
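Cells stably selected in G418 were plated at 2000/well, grown 16-24 hr, then given compounds in DMSO with the PDE inhibitor […] (300 uM solution added) for 30 min at 37C; cAMP was read by HTRF.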
gsp antag = gsp mutant antagonism | gsp-mutant cells, cAMP HTRF, 30 min; control for the full effect not named in the record | Potency, µM (series often up to 76.9 µM), inactives show at the highest dose activity change, negative = inhibition, actives largely listed as inhibitors | 340,000 compounds, 0.4% hits; active = falling curve of any shape with a large fitted effect; inconclusive = falling curve, mostly with a smaller effect; inactive = flat or rising curve; cell line not stated here;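 also: intracellular cAMP measured with PDE inhibitor Ro 20-1724 present during compound exposure; potency is read from the fitted curve at half-maximal effect; % is scaled to controls: 0 for no effect and ±100 for the full control effect; nearly all actives have a fitted effect of over 65% in size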
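HTRF cAMP measurement after 30 min RT detection following 30 min, 37C compound treatment alongside […] (added as 300 uM solution) in G418-selected cells seeded at 2000/well and grown 16–24 h.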
ClpP mod = qHTS Assay for Activators of ClpP | Potency, µM (titrated, usually from 57.5 µM), inactives show top-dose activity change, negative = active | ATP-dependent Clp protease proteolytic subunit (Bacillus subtilis (strain 168)), P80244 | AID 651965, 2013 | 340,000 compounds, 1.9% hits | purified B. subtilis ClpP, FRET peptide cleavage, 20 min; active = well fitted falling curve with a large enough effect; inconclusive = small, poorly fitted or top-dose-only effect; inactive = no such curve, though single readings can be large or run the other way; also: potency is read from the fitted curve at half-maximal effect; the source files actives as falling curves though it sought activators and does not explain the sign; nearly all actives have a fitted effect of over 65% in size; many hits overshoot -100%
Target sequence (P80244 whole entry, looked up): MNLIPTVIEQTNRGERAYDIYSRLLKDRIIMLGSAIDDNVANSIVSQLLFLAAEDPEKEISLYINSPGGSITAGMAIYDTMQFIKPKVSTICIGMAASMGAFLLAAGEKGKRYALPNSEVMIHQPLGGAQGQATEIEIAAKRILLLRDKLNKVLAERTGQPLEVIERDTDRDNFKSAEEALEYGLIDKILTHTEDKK
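Buffer: 100 mM Tris/HCl pH8, 100 mM KCl, 0.05% low protease BSA, 2.5% glycerol, 0.01% Tween-20. ClpP 10 microg/mL final; 20 min RT; delta FRET normalized to ADEP and DMSO controls.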
TRPML1 blocker = inhibitors of human TRPML1 channel. activity change, negative = inhibition, % (no concentration beside the values). TRPML1-inducible cells, Ca2+ dye fluorescence, FDSS; stronger effect = lower value; inhibition of EC80 agonist-evoked calcium signal. 390,000 compounds, 0.02% hits. Q9GZU1. AID 624415; in the data active means activity change below about -50%; inconclusive means about -30% to -50%; inactive means above about -30%;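 also: stimulus is agonist 54-4 at its EC80 concentration; % is scaled to controls: 0 for no effect and ±100 for the full control effect; compound concentration not given in the record; the text of the record puts the active cut at -80%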
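Calcium fluorescence in TRPML1-DL cells induced overnight with Tet: a 110 s read after compound pin addition, then a 110 s antagonist read after challenge with 54-4 at 4 uM final (EC80).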
Menin MLL FP FL = inhibitors of human menin-MLL interaction, wild-type MLL peptide | Fluorescence polarization, fluorescein-MLL peptide displacement from menin | 290,000 tested, under 10 active | FP activity change, % at 61.4 µM; inconclusive = falling polarisation curve, or a change in total fluorescence; inactive = total fluorescence flat and polarisation flat or rising; no compound was filed as active; the % refers to the polarisation; negative = inhibition;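 also: % of control where 0% means no effect; inhibitors lower the polarisation; unlabelled MLL peptide was the positive control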
An asterisk follows results filed as active; u = inconclusive; x = not tested or not shown; & = joins results of further samples; [ ] = dose if it differs, or a comment.

SMILES	TRPML1 agonist	gsp agonist	gsp antag	ClpP mod	TRPML1 blocker	Menin MLL FP FL
COc1ccc(C(=O)NCCS(=O)(=O)NC2CCCC2)cc1	0.1	-4%	14%	6.6%	9	x
COc1cccc(CN(C)C(=O)C23CC4CC(CC(C4)C2)C3)c1	0.6	26%[15.4 µM]	-18%	x	33	-3.0
Cc1nn(CCCC(=O)NCc2ccccc2Br)c(=O)c2c1sc1ccccc12	-0.6	x	x	-3.5%	0	x
O=C(c1ncc[nH]1)c1cccs1	-0.8	-25%	10%	x	-4	3.3
CCCC(=O)Nc1nnc(S(=O)(=O)N2CCCCCC2)s1	-0.1&0.2	-57%[inhibitor]	7%	-3.3%&0.6%	18&-8	-1.4
c1ccc(-c2cc(-c3ccccc3)ncn2)cc1	1.6	9%[15.4 µM]	-26%	-0.9%	20	x
COc1ccccc1-c1nnc(SCC(=O)O)n1-c1ccc(C)cc1	-0.2	12%[15.4 µM]	5%	x	-2	1.5
COc1ccccc1NC(=O)N1CCOCC1	0.3	30%[15.4 µM]	8%	-3.2%	9	9.1
COc1ccc(OC)c(S(=O)(=O)N2CCC(C(=O)Nc3cc(C)ccc3C)CC2)c1	0.3	-6%	2%	0.7%	7	-2.8
COc1cccc(C2Nc3ccc4ccccc4c3C3=C2C(=O)CC(C)(C)C3)c1OCC(=O)O (stereo unspecified)	x	3%	-11%	4.3%	x	2.8
Cc1ccccc1OCc1occc1C(=O)Nc1cccc(-n2cnnn2)c1	1.3	1%	-21%	0.1%	3	2.6
CCOc1ccccc1N1CCN(CC(=O)N(C2CCCC2)C2CCS(=O)(=O)C2)CC1 (stereo unspecified)	1.9	2%	4%	-1.0%	30	x
Cc1ccc(NC(=O)COCc2cc(-c3cccs3)on2)cc1Cl	0.7	x	x	-11%	0	x
COC(=O)c1cc(NC2(c3ccccc3)C(=O)c3ccccc3C2=O)cc(C(=O)OC)c1	-0.4	x	x	1.9%	12	x
Cc1cccc2nc(CSc3ncccc3C(=O)O)cn12	0.3	-6%	7%	-0.3%	20	-6.8
CCOC(=O)c1cc(N2CCCCC2)nc2ccccc12	1.5	-29%	-9%	-1.7%	7	x
CCN(C(=O)COC(=O)CCc1ccccc1OC)c1c(N)n(Cc2ccccc2)c(=O)[nH]c1=O	-0.2	u	-6%	0.6%	19	x
COc1ccc(C(C)(C)C)cc1NC(=O)CCCn1c(=O)oc2ccccc21	1.2	18%	-17%	0.9%	-1	1.3
CCCOC(=O)C1[C@H]2C(=O)N(Cc3ccco3)C[C@]23C=C[C@H]1O3 (stereo partly specified)	-0.6	-19%	10%	1.5%	-1	0.4
CCN(CC)S(=O)(=O)c1ccc(OCC(=O)NC2CCS(=O)(=O)C2)c([N+](=O)[O-])c1 (stereo unspecified)	0.1	28%	7%	-0.5%	-15	-2.8
CCOC(=O)c1c(N)n(-c2ccccc2CC)c2nc3ccccc3nc12	1.6	x	x	4.5%	-10	x
Cc1ccc(S(=O)(=O)NCCCn2ccnc2)cc1	-0.6	4%	11%	-1.0%	-8	-0.2
C#CCOCCOCCOCCNc1nc(N2CCN(C(=O)CCCCCCCCCCNC(=O)Cn3cc(C[C@@H](C)O)nn3)CC2)nc(N2CCN(C(=O)CCCCCCCCCCNC(=O)[C@H](CCCCN)n3cc(CCCC(=O)O)nn3)CC2)n1	-0.5	u	10%	-1.6%	22	x
COc1ccc(COCC(O)CN(Cc2ccco2)Cc2ccccc2O)cc1 (stereo unspecified)	1.5	12%	-9%	2.2%	28	-0.9
O=C1N/C(=C\c2ccc(O)cc2)C(O)=C1C=NCc1ccccc1	-0.3	-1%	-10%	-12%	-9	-0.3

The last 2 entries of the section above lead into the next.
SMILES	TRPML1 agonist	gsp agonist	gsp antag	ClpP mod	TRPML1 blocker	Menin MLL FP FL
COc1ccc(COCC(O)CN(Cc2ccco2)Cc2ccccc2O)cc1 (stereo unspecified)	1.5	12%	-9%	2.2%	28	-0.9
O=C1N/C(=C\c2ccc(O)cc2)C(O)=C1C=NCc1ccccc1	-0.3	-1%	-10%	-12%	-9	-0.3
O=[N+]([O-])c1ccc(-c2ccc(S(=O)(=O)N3CCOCC3)cc2)cc1	x	-17%	10%	0.8%	x	7.3
CC1(C)Cc2nc3oc4c(N(CCO)Cc5ccccc5)ncnc4c3cc2CO1	-0.9	-5%	-16%	14µM*	41	0.8
CCC(C(=O)Nc1ccc(C)c(Cl)c1)n1c(=O)c(-c2ccccc2NC(C)=O)nc2ccccc21 (stereo unspecified)	2.6	x	x	-12%	-9	x
COc1ccc(OC)c(NC(=S)NCCSc2ccc(C)cc2)c1	0.9	-1%	-10%	-23%	-8	2.0
O=[N+]([O-])c1cccc(C=NN=Cc2ccccc2O)c1	1.2	16%	3%	-1.4%	0	x
Cc1ccc(NC(=O)C2CCN(C(=O)NCc3ccccc3)CC2)cc1C	-0.2	4%	2%	x	9	0.3
O=C(/C=C/c1ccco1)N1CCN(c2ncccn2)CC1	-0.5	u	-10%	-2.4%	15	12
O=C(CN1CCN(S(=O)(=O)c2ccc(Cl)cc2)CC1)NC1CC1	0.8	-14%	-4%	0.3%	15	x
Cc1nc2ncnn2c(C)c1CCC(=O)N1CCN(c2ccccc2)CC1	-0.7	x	x	-3.5%	20	x
Cc1[nH]c(C)c(S(=O)(=O)NCCc2ccccc2)c1C(=O)N1CCCC1	0.3	-43%[inhibitor]	-6%	0.8%	-5	-1.0
COC(=O)c1ccc(CSc2nnnn2-c2ccccc2)o1	-0.6	-16%	5%	-5.4%	5	-1.6
O=C(Nc1ccc(N2CCCCC2)cc1)c1cccnc1Cl	-0.3	-2%	20%	2.5%	9	9.0
Cc1ccc(-c2nc(N/N=C/c3ccccc3[N+](=O)[O-])c3ccccc3n2)cc1	2.0	-54%[inhibitor]	2%	-0.9%	18	0.1
O=C(O)C1OC2OC3(CCCCC3)OC2C2OC3(CCCCC3)OC12 (stereo unspecified)	0.3	-11%[15.4 µM]	8%	-2.5%	-3	5.4
Cc1ccc(S(=O)(=O)NNC(=O)c2cccnc2)cc1	0.8	-75%[inhibitor]	9%	1.1%	1	-3.7
Cc1ccc(N2CN(CCc3ccccc3)CNC2=S)cc1	-0.5	-1%	7%	-1.3%	-15	-0.6
O=C(OCC(=O)N1CCN(Cc2ccccc2)CC1)c1ccc(Cl)cc1	1.2	u	10%	-0.2%	20	-5.5
CCN(CC(=O)Nc1sc2c(c1C#N)CCC(C)C2)Cc1nc2ccccc2c(=O)[nH]1 (stereo unspecified)	0.4	12%	-18%	x	3	1.8
CCCn1c2ccccc2c2cnn(CC(=O)NCCc3ccc(S(N)(=O)=O)cc3)c(=O)c21	1.4	x	x	4.3%	4	x
Cc1cc(NC(=O)CSc2nnc(COc3ccccc3)o2)no1	0.6	u	-16%[15.4 µM]	-0.2%	-10	-1.4
CC(=O)N=c1sccn1CC(O)c1ccc(Br)cc1 (stereo unspecified)	-0.8	7%[15.4 µM]	6%	-2.3%	-12	1.4
CCCCOc1ccc(C(=O)N(Cc2nc(-c3ccc(Cl)cc3)no2)C(C)C)cc1	2.5	x	x	-4.3%	-8	x
CCN(CC)C(=O)C(Oc1ccc(C)nc1[N+](=O)[O-])c1ccccc1 (stereo unspecified)	-0.4	u	-25%	x	-3	4.9
O=C(Cn1ncc2c3ccccc3n(Cc3ccccc3F)c2c1=O)N1CCN(c2ccccn2)CC1	0.2	u	-15%	4.1%	-1	-1.2
COc1ccccc1C(O)(C(=O)NN(C(=O)c1ccccc1)c1ccccc1C)c1cccs1 (stereo unspecified)	0.2	0%	-6%[15.4 µM]	-5.8%	-16	3.6

The list continues.
SMILES	TRPML1 agonist	gsp agonist	gsp antag	ClpP mod	TRPML1 blocker	Menin MLL FP FL
CCn1nc(NS(=O)(=O)c2ccc(NC(C)=O)cc2)c2cc3ccc(C)cc3nc21	0.7	-3%	-3%	-5.3%	21	x
Cn1nnnc1SCC(=O)Nc1ccc(Br)cc1Br	-0.2	-6%	1%	1.1%	1	x
CCOc1ccc(N(CC(=O)NC2CCCCCC2)S(=O)(=O)c2ccccc2)cc1	-0.3	14%[15.4 µM]	8%	1.2%	11	x
O=C(Cn1c(-c2cncs2)nc2ccccc21)NCCc1ccccc1	-0.9	25%	2%	-27%	-1	0.9
CN(C)C(=O)COC(=O)/C=C/c1ccccc1[N+](=O)[O-]	0.2	-17%	2%	1.0%	17	3.1
CCOc1ccccc1NS(=O)(=O)c1cc2[nH]c(=O)c(=O)[nH]c2cc1C	4.4	x	x	-27%	22	x
CCC(C)(C)C1CCc2c(sc(N)c2C(N)=O)C1 (stereo unspecified)	0.5	-57%[inhibitor]	-10%	-4.4%	-11	5.7
Cc1ccc(C(=O)Nc2nnc(SCc3cc(=O)n4ccc(C)cc4n3)s2)cc1	2.0	x	x	4.6%	-8	x
Cc1ccc(-c2cc(C(=O)N3CCN(S(=O)(=O)c4ccc(Br)s4)CC3)[nH]n2)cc1C	2.6	x	x	0.4%	35	x
Cc1cccc(C(=O)N[C@H](C(=O)Nc2ccc(C)c(S(=O)(=O)N3CCOCC3)c2)C(C)C)c1	1.4	-6%	-27%	-25%	1	x
COC(=O)C1=C(C)NC(C)=C(C(=O)OC)C1C1CC=CCC1 (stereo unspecified)	2.5	0%	-3%	-2.7%	8	-0.2
O=C(NC(=S)Nc1ccc(Br)cn1)c1cccnc1	0.6	3%	-8%	x	5	-0.7
COc1ccccc1C(=O)N/C(=C/c1ccccc1)C(=O)NC(CCSC)C(=O)O (stereo unspecified)	0.5	-2%	0%	0.4%	6	1.1
CCCCCN(C(=O)CCC(=O)OCc1cccc(C)c1)c1c(N)n(CCCC)c(=O)[nH]c1=O	0.9	u	-2%	2.2%	5	x
Cc1cc(NC(=O)CC(C)C)cc(-c2nc3ncccc3o2)c1O	-0.2	x	x	1.0%	8	x
CCCCN(C(=O)Oc1ccccc1)C1CCS(=O)(=O)C1 (stereo unspecified)	-0.7	4%[15.4 µM]	15%	0.4%	2	2.2
COc1cccc(Oc2cn[nH]c2-c2ccc(OC)cc2O)c1	-0.2	1%	u	-4.2%	-3	2.4
Cc1cc(N/N=C/c2ccc(O)cc2)c2cccc(C)c2n1	0.3	-24%	10%	-7.7%	-9	x
Cc1ccc(Nc2nc3ccccc3c3nnc(C)n23)cc1Cl	1.8	x	x	6.0%	20	x
CC(=O)Nc1cccc(C(=O)NCC2(N3CCCCC3)CCCCC2)c1	-0.4	-8%[15.4 µM]	16%	x	5	0.7
COc1ccc(NC(=O)C2(C)Cc3c(-c4ccc5c(c4)OCO5)ccnc3O2)cn1 (stereo unspecified)	-0.3	x	x	3.7%	-4	x
Cc1cc(C)cc(NC(=S)N2CCN(c3ncc(C(F)(F)F)cc3Cl)CC2)c1	0.7	23%	6%	x	12	1.3
Cn1cccc1C(=O)NCc1ccc(S(N)(=O)=O)cc1	0.3	-6%[15.4 µM]	-1%	x	-15	-4.9
